# RE007 growth inh: qHTS Assay for Inhibitors of the HIV-1 protein Vpr. S. pombe RE007 Vpr strain, BacTiter-Glo ATP luminescence, 24 h; control for the full effect not named in the record. Potency, µM (highest dose often 92.2 µM), without a hit: top-dose activity change, negative = less growth. actives 0.21% (n = 360,000); active = well fitted falling curve with a large enough effect; inconclusive = small, poorly fitted or top-dose-only effect; inactive = no such curve, though single readings can be large or run the other way;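 further: on the % scale 0 is the no-effect control and ±100 the full control effect; nearly all actives have a fitted effect of over 50% in size; the assay follows cell death caused by Vpr and the record does not say whether a fall means rescue or toxicity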
#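 Fission yeast RE007 carrying one integrated HIV-1 vpr copy, seeded at OD 0.01 in PMG+AL medium with 23 nL pinned compound. Grown 24 h at 30 degrees; viability read by BacTiter-Glo luminescence after 5 min.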
# NS1 inh: qHTS Assay for Inhibitors of Influenza NS1 Protein Function; S. cerevisiae slowed by influenza A NS1, growth recovery by OD600; AID 2326, 2010; actives 0.4% (n = 270,000); Potency, µM (top dose mostly 46.1 µM), inactives show top-dose activity, positive = more growth; active means well fitted rising curve with a large enough effect; inconclusive means small, poorly fitted or top-dose-only effect; inactive means no such curve, though single readings can be large or run the other way; further: nearly all actives have a fitted effect of over 50% in size
#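 In this qHTS, NS1 from influenza A is expressed in budding yeast, where it slows growth. Cells are switched from glucose to 2% galactose medium (pH 6.0, -URA), treated with compound, and growth recovery is read at OD600.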
# Cruzain inh Det: qHTS Assay for Promiscuous and Specific Inhibitors of Cruzain (with detergent); Cruzipain (Trypanosoma cruzi), P25779; purified cruzain, Z-FR-AMC fluorescence, 0.01% Triton; Potency, µM, for inactives: max response, negative = inhibition, most hits filed as inhibitors; actives 0.43% (n = 200,000);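 further: plate controls were neutral wells for no effect and buffer without enzyme for full effect; nearly all actives have a fitted effect of over 40% in size; top concentration of the series not given in the record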
# Target sequence (P25779 123-467 limits assumed): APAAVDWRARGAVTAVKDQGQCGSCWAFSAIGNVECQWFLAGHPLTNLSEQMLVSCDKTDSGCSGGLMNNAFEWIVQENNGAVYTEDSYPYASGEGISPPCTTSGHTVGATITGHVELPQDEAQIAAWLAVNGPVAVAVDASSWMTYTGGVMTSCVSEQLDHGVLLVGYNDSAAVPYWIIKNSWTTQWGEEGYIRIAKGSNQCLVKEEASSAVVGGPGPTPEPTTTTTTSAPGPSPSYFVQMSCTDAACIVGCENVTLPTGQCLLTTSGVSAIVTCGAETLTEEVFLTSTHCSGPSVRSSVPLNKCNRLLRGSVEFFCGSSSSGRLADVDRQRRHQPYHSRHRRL
#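 Read-out: AMC fluorescence (360 nm excitation, 450 nm emission), four reads over 2 min, first-to-third difference used. Conditions: cruzain 1.5 nM, Z-FR-AMC 2 uM, pH 5.5 acetate, 5 mM DTT, 0.01% Triton X-100.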
# Lassa entry inh: qHTS for Inhibitors of binding or entry into cells for Lassa Virus. Lassa virus pseudotype entry inhibition, cell reporter; control for the full effect not named in the record. Potency, µM (titrated, usually from 37.9 µM), inactives show at the highest dose activity change, negative = inhibition, hits mostly inhibitors. actives 1.2% (n = 300,000). AID 540256, 2011; active means well fitted inhibition curve with a large enough effect; inconclusive means small, poorly fitted or top-dose-only effect, or effect the other way; inactive means flat fitted curve, though single readings scatter; tested in HEK293 cells; further: on the % scale 0 is the no-effect control and ±100 the full control effect; nearly all actives have a fitted effect of over 50% in size; luciferase read-out
# Cruzain inh noDet: qHTS Assay for Promiscuous and Specific Inhibitors of Cruzain (without detergent); Cruzipain (Trypanosoma cruzi), P25779; purified cruzain, Z-FR-AMC fluorescence, no detergent; Potency, µM, inactives show max response, negative = inhibition, most hits filed as inhibitors; actives 2.3% (n = 200,000);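 further: plate controls were enzyme without inhibitor for no effect and buffer without enzyme for full effect; nearly all actives have a fitted effect of over 40% in size; top concentration of the series not given in the record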
#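 Detergent-free condition (0.00005% Triton X-100) in acetate buffer pH 5.5 with DTT. 1.5 nM enzyme and compound were pre-mixed 15 min, then 2 uM Z-FR-AMC substrate added; reaction progress from fluorescence change between first and third reads (60 s).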
# SARS PLP yeast: qHTS of Yeast-based Assay for SARS-CoV PLP; actives 0.19% (n = 330,000); S. cerevisiae expressing SARS-CoV PLpro, growth rescue; control for the full effect not named in the record; Potency, µM (series often up to 32.9 µM), for inactives: at the top dose activity, positive = growth rescue; active means well fitted rising curve with a large enough effect; inconclusive means small, poorly fitted or top-dose-only effect; inactive means no such curve, though single readings can be large or run the other way; further: 0% is about no effect; nearly all actives have a fitted effect of over 55% in size; growth read by luminescence after 48 h
# 2A StopGo: High Throughput Screening for Foot and Mouth Disease Virus Antivirals; human cells with a luciferase reporter of 2A StopGo recoding; control for the full effect not named in the record; AID 1159524, 2015; Potency, µM (series often up to 57.9 µM), for inactives: top-dose signal change, negative = less light; actives 1.2% (n = 410,000); active = well fitted falling curve with a large enough effect; inconclusive = small, poorly fitted or top-dose-only effect; inactive = no such curve, though single readings can be large or run the other way; tested in HEK293T cells; further: on the % scale 0 is the no-effect control and ±100 the full control effect; nearly all actives have a fitted effect of over 45% in size; luciferase light after 4 h
# Marburg entry inh: qHTS for inhibitors of binding or entry into cells for Marburg Virus; actives 1.8% (n = 300,000); Potency, µM (titrated, usually from 37.8 µM), for the others: at the highest dose activity change, negative = inhibition, most hits filed as inhibitors; Marburg virus pseudotyped entry inhibition, cell reporter; control for the full effect not named in the record; about a third of the inactives were read at about 46 µM; active = well fitted inhibition curve with a large enough effect; inconclusive = small, poorly fitted or top-dose-only effect, or effect the other way; inactive = flat fitted curve, though single readings scatter; tested in HEK293 cells; about a fifth of its hits are not listed in these tables; further: on the % scale 0 is the no-effect control and ±100 the full control effect; luciferase read-out
# An asterisk follows results filed as active; ? = inconclusive; . = no result given; & = joins results of further samples; [ ] = another dose, or the depositor's remark. Unless noted, the call rests on the fitted dose curve; in most records, active means well fitted curve in the direction sought with a large enough effect; inconclusive means small, poorly fitted or top-dose-only effect, or another doubt; inactive means no such curve, though single readings can be large; an effect the other way counts as inactive or inconclusive. Potency means the concentration at half of the fitted maximal effect. The order is random. Share with any hit: about 4.6%.
SMILES,RE007 growth inh,NS1 inh,Cruzain inh Det,Lassa entry inh,Cruzain inh noDet,SARS PLP yeast,2A StopGo,Marburg entry inh
COc1cc(NC(=O)c2ccccc2NS(=O)(=O)c2ccc(Cl)s2)cc(OC)c1,19%,-44%,-18%,11µM*,?,-67%,-27%,?
Cc1cc(NC(=O)CCC(=O)N(CC2CCCO2)C(C(=O)NC2CCCC2)c2cccnc2)no1 (stereo not given),-23%,-1%,6.3%,-12%,6%,0%,-15%,5%
COc1ccc2nc(/C=N/NC(=O)[C@@H]3CCCN3C(=O)OC(C)(C)C)ccc2c1,16%,-4%,.,1%,.,-1%,36%[activator],?
Cc1ccc(NC(=O)c2oc3ccc(S(=O)(=O)N(C)C4CCCCC4)cc3c2C)c(C)c1,.,.,1.2%,4%[46.1 µM],-1%,.,-24%,.
CN(CCCn1c(=S)[nH]c2ncccc2c1=O)Cc1ccccc1,3%,-5%,3.9%,-24%,3%,5%,0%,-7%
Cc1nc(=S)c2ccccc2[nH]1,16%,0%,-2.5%,6%,-6%,?,-3%,10%
Cc1cccc(C(=O)N2CCCC(N3CCN(Cc4ccc5c(c4)OCO5)CC3)C2)n1 (stereo not given),-3%,0%,.,.,.,3%,-9%,.
Cc1ccc(N=Cc2c(C)[nH]n(-c3ccccc3)c2=O)nc1,-30%,2%,.,2%,.,0%,21%,7%[46.1 µM]
CS(=O)(=O)N1CCN(C(=O)c2ccccc2)C1,-7%,-1%,1.9%,-12%[14.3 µM],2%,4%,11%,-5%
CC(C)NS(=O)(=O)c1ccc(NC(=O)Cc2ccsc2)cc1,-11%,5%,.,.,.,1%,25%,.
COCCNc1nnc(SCC(=O)c2c[nH]c3ccccc23)s1,4%,12%,-1.7%,-1%,-19%,-4%,-23%,-29%
COc1ccc(-c2cc(C(=O)N3CCN(c4ccc(F)cc4)CC3)no2)cc1OC,3%,-3%,-8.6%,1%&5%[46.1 µM],?,1%,-21%&-26%,?
Cc1ccc(Nc2c(-c3ccccc3O)nc3ccc(Br)cn23)cc1,.,.,-1.9%,7%[46.1 µM],1%,.,24%,11%[46.1 µM]
CC1CCc2sc(NC(=O)c3ccc(N4C(=O)CCC4=O)cc3)c(C(N)=O)c2C1 (stereo not given),7%,16%,.,-8%,.,-2%,7%,-2%
N=C(N)N1CCc2ccccc2C1,.,0%,-1.1%&0.6%,-3%,0%&-3%,19%,.,4%&4%&4%&4%
Cc1ccc(C(O)CCc2ccc(N)cc2)cc1 (stereo not given),-3%,-2%,.,18%,.,13%,12%,?
CC(=O)Nc1ccc(OC(=O)c2c(-c3ccccc3Cl)noc2C)cc1,25%,-21%,-6.3%,-30%,10%,7%,-5%,0%
CCc1cccc(N(C(=O)c2csnn2)C(C(=O)NC2CCCCC2)c2cccnc2)c1 (stereo not given),59%,2%,.,7%[46.1 µM],.,-1%,-7%,13%[46.1 µM]
CCN(CC)c1ccc(C=C2C(=O)OC(c3ccccc3)OC2=O)cc1 (stereo not given),12%,.,.,-9%[46.1 µM],.,-3%,-10%,33%&33%[46.1 µM]
Cc1ccc(C)c(NC(=O)CN(C)C(=O)c2cc3c(s2)CCCCC3)c1,0%,.,.,?,.,-8%,-12%,-29%
O=C(CN1CCN(S(=O)(=O)c2ccc(Cl)c(Cl)c2)CC1)N1CCCCC1,-22%,.,.,?,.,-5%,-23%,14%
CCC1(CC(C)C)C(=O)NC(=S)NC1=O,10%,.,.,1%,.,.,4%,2%
CC(C)(C)C1CCc2c(sc(NC(=O)c3cccs3)c2C(N)=O)C1 (stereo not given),-5%,1%,2.6%,-21%,13µM*,4%,-1%,14%
O=C(NNc1cccc(Cl)c1)c1cccnc1Oc1ccccc1,151%,-51%,.,-9%,.,-3%,-1%,?
CC(=O)Nc1cccc(/C(C)=N/Nc2ccc(S(=O)(=O)Nc3ccccc3C(=O)O)cc2[N+](=O)[O-])c1,-15%,.,.,15%,.,.,1%,1%

# By substructure, the entries above with an aryl methoxy group
SMILES,RE007 growth inh,NS1 inh,Cruzain inh Det,Lassa entry inh,Cruzain inh noDet,SARS PLP yeast,2A StopGo,Marburg entry inh
COc1cc(NC(=O)c2ccccc2NS(=O)(=O)c2ccc(Cl)s2)cc(OC)c1,19%,-44%,-18%,11µM*,?,-67%,-27%,?
COc1ccc2nc(/C=N/NC(=O)[C@@H]3CCCN3C(=O)OC(C)(C)C)ccc2c1,16%,-4%,.,1%,.,-1%,36%[activator],?
COc1ccc(-c2cc(C(=O)N3CCN(c4ccc(F)cc4)CC3)no2)cc1OC,3%,-3%,-8.6%,1%&5%[46.1 µM],?,1%,-21%&-26%,?

# Additional results follow.
SMILES,RE007 growth inh,NS1 inh,Cruzain inh Det,Lassa entry inh,Cruzain inh noDet,SARS PLP yeast,2A StopGo,Marburg entry inh
Cc1ccc(Cc2nc3ccccc3nc2SCC(=O)N2CCc3ccccc32)cc1,.,.,2.3%,-22%[46.1 µM],-2%,.,-14%,.
CCOC(=O)/C(C#N)=C/c1ccc(N2CCN(C)CC2)cc1,5%,-10%,-6.6%,20%,-7%,0%,69%[activator],?
Cc1cccc(CN2CCCC(C(=O)c3ccc4c(c3)OCO4)C2)n1 (stereo not given),-1%,0%,.,-2%[46.1 µM],.,1%,-9%,?
O=C(O)COc1ccccc1/C=N/n1c(C2CCCCC2)n[nH]c1=S,16%,-2%,.,.,.,-3%,-14%,.
CCOC(=O)c1c(NC(=O)c2cccs2)sc(CC)c1-c1cccs1,8%,5%,-5.3%,-17%[14.3 µM],-22%,4%,?,?
O=c1n(Cc2ccc(F)cc2)nc2n1-c1ccccc1SC2,2%,-10%,.,.,.,1%,40%[activator],.
Cc1cc2ncn(CCOc3ccccc3)c2cc1C,-17%,-104%,-0.6%,?,0%,0%,-1%,15%
O=C(O)C1CCCCC1C(=O)Nc1ccc(-c2ccccc2)cc1 (stereo not given),4%,-1%,.,7%,.,-1%,4%,5%&5%[46.1 µM]
Cc1cc(C(=O)N2CCc3c([nH]c4ccccc34)C2c2cccc(Cl)c2)nn1C (stereo not given),-7%,4%,.,.,.,-5%,0%,.
O=C(NCCCN=C1NS(=O)(=O)c2ccccc21)c1ccc(S(=O)(=O)N2CCOCC2)cc1,10%,-4%,3.0%,3%,1%,7%[6.58 µM],25%,24%
Cc1cc(C)c(NC(=O)CCN2C(=O)c3ccccc3S2(=O)=O)c(C)c1,-10%,.,.,?,.,6%,-9%,1%[46.1 µM]
CC(C)NC(=O)C1CCN(C(=O)c2ccc(-c3ccccc3)cc2)CC1,7%,-12%,-1.9%,5%,7%,.,-21%,-4%
CC(C)c1nc2ccc(C(=O)O)cc2[nH]1,4%,9%,4.3%,4%,-2%,-5%,.,-19%
CCOC(=O)N1CCN(Cc2ccc3c(c2)OCO3)CC1,1%,-13%,.,22%,.,2%,-9%,-1%
Cc1sc(NC(=O)c2ccco2)c(CN2CCC(C)CC2)c1C,-6%,-10%,9.4%,-25%,1%,-15%,-28%,?
Cc1ccc(NS(=O)(=O)c2csc(C(N)=O)c2)c(C)c1,4%,4%,.,.,.,1%,11%,.
CC(=O)OC1CC(OC2C(O)CC(OC3C(O)CC(OC4CCC5(C)C(CCC6C5CCC5(C)C(C7=CC(=O)OC7)C(O)CC65O)C4)OC3C)OC2C)OC(C)C1OC1OC(CO)C(O)C(O)C1O (stereo not given),-1%,.,.,?,.,.,?,0.18µM*
CN(C)c1ccc(C=C2C(=O)OC(C)(C)OC2=O)cc1,20%,.,.,11%[46.1 µM],.,-11%,3%,-4%[46.1 µM]
COc1cc(Nc2cc(C)nc3nc(C)nn23)cc(OC)c1OC,6%,2%,3.5%,.,-1%,10%,0%,.
COc1ccc(C(=O)/C=C/C(=O)N(CC(=O)NC2CCCCC2)Cc2ccccc2)c(O)c1,2%,3%,.,4µM*,.,-2%,8.9µM*,?
CCCc1nc2ccccc2c2nc(N)nn12,10%,-5%,5.5%,20%,1%,-1%,-3%,3%&0%
CCCOC(=O)c1ccc(NC(=O)Oc2ccccc2)cc1,-12%,-52%,3.2%,10%,-9%,5%,.,-1%
CC(C(=O)O)n1c(C(F)(F)F)nc2ccccc21 (stereo not given),10%,7%,1.9%,-5%,-9%,0%,-25%,0%[46.1 µM]
COc1ccc(-c2cnc3ncnn3c2N)cc1,-14%,1%,.,14%,.,0%,5%,-2%[46.1 µM]
Cc1ccc(C(=O)NCCc2ccccn2)cc1S(=O)(=O)N1CCOCC1,15%,-8%,.,5%,.,6%,22%,13%[46.1 µM]
CCOc1ccc(NC(=O)CCC(=O)NNC(=O)c2ccc(Br)o2)cc1,11%,-12%,.,12%,.,-2%,12%,-29%[46.1 µM]
Cc1ccc(S(=O)(=O)N2CCN(C(=O)c3c(C)nn(-c4ccccc4)c3Cl)CC2)cc1,33%,-35%,0.8%,?,?,-7%,.,-27%
C=CCn1c(Cc2ccc(OCC)cc2)nnc1SCC(N)=O,6%,2%,6.7%,-1%,5%,8%,-21%,-4%
O=C(Nc1ccccc1N1CCCC1)C1CCN(C(=O)c2ccc(Cl)cc2)CC1,-10%,.,.,3%,.,3%,?,-24%
Cc1nn(-c2ccccc2)c(C)c1NC(=O)COC(=O)CCCOc1ccccc1,35%,.,.,11%,.,-8%,-7%,-14%

# Molecules listed so far with an aryl thioether with sulfur outside any ring, in the order listed:
SMILES,RE007 growth inh,NS1 inh,Cruzain inh Det,Lassa entry inh,Cruzain inh noDet,SARS PLP yeast,2A StopGo,Marburg entry inh
COCCNc1nnc(SCC(=O)c2c[nH]c3ccccc23)s1,4%,12%,-1.7%,-1%,-19%,-4%,-23%,-29%
Cc1ccc(Cc2nc3ccccc3nc2SCC(=O)N2CCc3ccccc32)cc1,.,.,2.3%,-22%[46.1 µM],-2%,.,-14%,.
C=CCn1c(Cc2ccc(OCC)cc2)nnc1SCC(N)=O,6%,2%,6.7%,-1%,5%,8%,-21%,-4%

# Assay outcomes (PubChem)
